CtBP-E1A inh – inhibitors of CtBP/E1A interaction. 0.49% of 340,000 active. AlphaScreen GST-E1A/His-CtBP binding, 1536-well; active compounds read low; control for the full effect not named in the record. AID 651724. activity change, % (concentration not given with the values); in the data active means activity change below about -65%; inconclusive means about -30% to -65%; inactive means above about -30%; also: % is scaled to controls: 0 for no effect and ±100 for the full control effect
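Homogeneous bead-based format: GST-tagged E1A captured on glutathione donor beads, His-tagged CtBP on nickel acceptor beads; compounds precede bead addition by 2 h at 37 °C.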
gsp antagonist – antagonists of gsp mutant (McCune-Albright syndrome). gsp-mutant cells, cAMP HTRF, 30 min; control for the full effect not named in the record. Potency, µM (top dose mostly 76.9 µM), for the others: at the highest dose activity change, negative = inhibition, actives largely listed as inhibitors. 0.4% of 340,000 active; active = falling curve of any shape with a large fitted effect; inconclusive = falling curve, mostly with a smaller effect; inactive = flat or rising curve; cell line not stated here;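 also: intracellular cAMP measured with PDE inhibitor Ro 20-1724 present during compound exposure; potency is read from the fitted curve at half-maximal effect; % is scaled to controls: 0 for no effect and ±100 for the full control effect; nearly all actives have a fitted effect of over 65% in size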
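HTRF cAMP measurement after 30 min RT detection following 30 min, 37C compound treatment alongside […] (added as 300 uM solution) in G418-selected cells seeded at 2000/well and grown 16–24 h.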
ClpP mod – qHTS Assay for Activators of ClpP | purified B. subtilis ClpP, FRET peptide cleavage, 20 min | 1.9% of 340,000 active | AID 651965, 2013 | ATP-dependent Clp protease proteolytic subunit (Bacillus subtilis (strain 168)), P80244 | Potency, µM (series often up to 57.5 µM), for the others: top-dose activity change, negative = active; active = well fitted falling curve with a large enough effect; inconclusive = small, poorly fitted or top-dose-only effect; inactive = no such curve, though single readings can be large or run the other way; also: potency is read from the fitted curve at half-maximal effect; the source files actives as falling curves though it sought activators and does not explain the sign; nearly all actives have a fitted effect of over 65% in size; many hits overshoot -100%
Target sequence (P80244 whole entry, looked up): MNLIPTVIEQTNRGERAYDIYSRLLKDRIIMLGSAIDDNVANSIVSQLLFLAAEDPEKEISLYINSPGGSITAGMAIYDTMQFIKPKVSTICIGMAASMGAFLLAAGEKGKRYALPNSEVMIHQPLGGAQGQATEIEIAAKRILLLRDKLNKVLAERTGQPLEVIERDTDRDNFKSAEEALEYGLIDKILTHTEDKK
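ClpP 10 microg/mL final, pH 8 Tris/KCl buffer with BSA, glycerol, Tween-20; compound pinned in; FRET-FV substrate; RT 20 min; Ex320/Em430; ΔFRET vs ADEP 5.8 microM, DMSO, no enzyme.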
TRPV1 PAM – human TRPV1 potentiation; Q8NER1; TRPV1-expressing cells, Fluo-8 calcium influx, capsaicin EC20 potentiation; host cell line not named in the record; control for the full effect not named in the record; potentiation, % at 8.33 µM; 0.02% of 320,000 active; active means potentiation above 80%; inconclusive means 30% to 80%; inactive means below 30%; also: 0% is about no effect
Target sequence (Q8NER1 whole entry, looked up): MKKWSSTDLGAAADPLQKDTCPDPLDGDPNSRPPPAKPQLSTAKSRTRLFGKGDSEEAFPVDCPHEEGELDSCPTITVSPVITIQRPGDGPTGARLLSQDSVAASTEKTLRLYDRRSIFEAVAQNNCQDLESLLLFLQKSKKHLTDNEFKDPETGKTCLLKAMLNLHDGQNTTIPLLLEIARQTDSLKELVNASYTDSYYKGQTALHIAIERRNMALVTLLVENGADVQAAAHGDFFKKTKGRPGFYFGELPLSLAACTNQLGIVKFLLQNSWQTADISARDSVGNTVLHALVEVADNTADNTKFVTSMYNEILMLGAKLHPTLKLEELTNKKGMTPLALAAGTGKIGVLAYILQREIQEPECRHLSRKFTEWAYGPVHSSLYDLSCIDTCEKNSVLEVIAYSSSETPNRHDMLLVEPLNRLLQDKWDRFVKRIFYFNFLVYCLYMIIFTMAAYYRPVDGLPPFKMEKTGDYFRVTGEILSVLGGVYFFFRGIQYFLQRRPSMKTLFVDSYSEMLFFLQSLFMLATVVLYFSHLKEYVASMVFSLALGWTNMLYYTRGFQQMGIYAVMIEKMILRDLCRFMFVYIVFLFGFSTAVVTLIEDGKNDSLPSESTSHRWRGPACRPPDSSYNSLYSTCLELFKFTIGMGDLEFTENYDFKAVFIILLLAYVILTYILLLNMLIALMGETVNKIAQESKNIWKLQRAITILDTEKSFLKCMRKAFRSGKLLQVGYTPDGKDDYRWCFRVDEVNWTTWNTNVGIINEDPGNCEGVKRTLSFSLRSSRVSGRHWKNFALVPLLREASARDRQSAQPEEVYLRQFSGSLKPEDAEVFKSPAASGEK
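Fluo-8 calcium influx in TRPV1-expressing cells, kinetic read (ex 480/em 520 nm). Compound added and read 3 min for agonist activity, followed by capsaicin at EC20 final and 2 min further read for enhancement.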
gsp ag – activates gsp, the McCune-Albright syndrome mutation | gsp mutant cells, cAMP HTRF, 30 min; control for the full effect not named in the record | Potency, µM (highest dose often 76.9 µM), without a hit: top-dose activation (cAMP increase), hits mostly activators | 0.13% of 340,000 active; active = well fitted activation curve with a large enough effect; inconclusive = small, poorly fitted or top-dose-only effect, or another doubt; inactive = no such curve, though single readings can be large or run the other way; cell line not stated here;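 also: phosphodiesterase inhibitor Ro 20-1724 added with compounds to block cAMP breakdown; potency is read from the fitted curve at half-maximal effect; nearly all actives have a fitted effect of over 60% in size; about a fifth of the inactives were tested at one dose only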
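Cells stably selected in G418 were plated at 2000/well, grown 16-24 hr, then given compounds in DMSO with the PDE inhibitor […] (300 uM solution added) for 30 min at 37C; cAMP was read by HTRF.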
Menin MLL FP FL – displaces fluorescein MLL peptide from human menin; Fluorescence polarization, fluorescein-MLL peptide displacement from menin; FP activity change, % at 61.4 µM; 290,000 tested, under 10 active; inconclusive = falling polarisation curve, or a change in total fluorescence; inactive = total fluorescence flat and polarisation flat or rising; no compound was filed as active; the % refers to the polarisation; negative = inhibition;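 also: % of control where 0% means no effect; inhibitors lower the polarisation; unlabelled MLL peptide was the positive control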
Sfp inh – Sfp phosphopantetheinyl transferase inhibition | Q9F4F7 | Biochemical Sfp PPTase activity, qHTS | Potency, µM, for the others: max response, negative = inhibition, actives largely listed as inhibitors | 3.5% of 310,000 active | AID 1490; active = well fitted inhibition curve with a large enough effect; inconclusive = small, poorly fitted or top-dose-only effect, or another doubt; inactive = no such curve, though single readings can be large or run the other way;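 also: the enzyme is Sfp with the accession as filed and its product quenches rhodamine fluorescence; potency is read from the fitted curve at half-maximal effect; 0% = enzyme reaction without inhibitor and -100% = no enzyme wells; top concentration of the series not given in the record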
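Sfp 15 nM + cpd, 15 min RT; start w/ rhodamine-CoA 5 uM, BHQ-2-YbbR 12.5 uM (final); 50 mM Hepes pH 7.6, 10 mM MgCl2, 0.01% NP-40, 0.01% BSA; read 525/598 nm at 0 and 30 min.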
Numbers without * were called inactive; ? = inconclusive; . = no result given; [ ] = dose if it differs, or a comment.

Order of results: CtBP-E1A inh	gsp antagonist	ClpP mod	TRPV1 PAM	gsp ag	Menin MLL FP FL	Sfp inh
1) COc1cccc(/C=C2\SC(=S)N(N3C(=O)CCCC3=O)C2=O)c1
    0	-16%	.	5	35%	-0.8	1%
2) Cc1c(C(=O)C(=O)NCc2cccs2)c2ccccc2n1C
    -4	3%	.	6	-13%[15.4 µM]	-3.3	-3%
3) Cn1c(N)c(C(=O)CSc2nnc(N)s2)c(=O)n(C)c1=O
    -11	1%	-0.2%	.	16%[15.4 µM]	.	.
4) CCCCOCCO
    3	16%	.	.	-7%[15.4 µM]	.	.
5) O=C(CCNC(=O)c1ccc(Br)cc1)NCc1cccnc1
    -13	7%	-6.8%	5	?	.	.
6) Cc1ccc(C)n1-c1nnc(N2CCC(C(=O)NCCCN3CCN(C)CC3)CC2)s1
    -7	-2%	1.7%	14	?	-1.7	8%
7) S=C1SC2(CCCCCC2)NC2=C1CCCCC2
    -3	.	-1.6%	.	-50%[inhibitor]	.	.
8) Cc1ccc(/C=N/N2CCN(Cc3ccccc3)CC2)o1
    -16	6%	-2.8%	22	-1%	-0.2	-25%
9) CC(=O)c1ccc(N2CCN(C(=O)CCN3C(=S)NC(C)(C)CC3C)CC2)cc1 (configuration not stated)
    2	-3%	0.3%	2	-8%[15.4 µM]	-2.9	8%
10) O=C(NCc1ccc2c(c1)OCO2)C1CCCN1C(=O)Nc1ccc(F)cc1 (configuration not stated)
    7	7%	0.9%	-4	8%	-0.2	3%
11) O=C(CN1CCCCC1)N/N=C/c1ccc(Cl)cc1Cl
    0	2%	-1.9%	?	1%	-0.8	27%
12) O=C(/C=C/c1ccccc1)Nc1ccc(CN2CCOCC2)cc1
    .	-2%	-1.7%	5	-12%	5.4	12%
13) CC(O)CNCCCOc1ccc(Cl)cc1C(C)(C)C (configuration not stated)
    -3	1%	.	10	-22%[15.4 µM]	0.0	?
14) O=C(Nc1ccc(Cl)cc1)c1ccc(-n2cccn2)c([N+](=O)[O-])c1
    -17	?	-1.2%	-21	6%	8.5	-11%
15) C=C1c2cc(C)ccc2NC(=O)N1c1ccc(C)cc1
    -3	-1%[15.4 µM]	-3.4%	8	-17%	0.9	13%
16) COCCCNC(=O)CCn1c(=O)c2ccccc2n(CC(=O)NCCc2ccc(OC)c(OC)c2)c1=O
    -3	2%	.	2	-7%[15.4 µM]	-3.0	22%
17) CCOc1ccc(NC(=S)N2CCN(c3ccc(N4CCOCC4)nn3)CC2)cc1
    1	-2%	-18%	-3	?	-4.8	13%
18) CCN(CC)C(=O)C1CCCN(Cc2ccc(N(C)C)cc2)C1 (configuration not stated)
    3	12%	-2.4%	-2	-6%	2.5	-12%
19) CC(=O)c1c(C)n(-c2ccc(C)cc2)c2ccc(O)cc12
    8	-9%	0.5%	-10	-19%[15.4 µM]	3.6	9%
20) CC1CCc2nc(NC(=O)c3ccc(N4C(=O)CCC4=O)cc3)sc2C1 (configuration not stated)
    -10	-5%	-5.1%	-24	-2%	.	4%
21) CCCCC1S/C(=N/N=C/c2ccco2)NC1=O (configuration not stated)
    0	-13%	3.8%	1	0%	.	5%
22) Cc1ccc(-c2nn(CC(=O)NC(C)c3ccccc3)c(=O)c3ccccc23)cc1 (configuration not stated)
    1	-18%	-1.9%	-11	20%	1.5	3%
23) CC(=O)c1ccc(N2CCN(C(=O)Nc3ccc(Cl)cc3)CC2)cc1
    5	-12%	-2.0%	-18	-2%[15.4 µM]	0.6	-12%
24) CN(CCc1ccccc1)C(=O)c1cccc(NC(=O)Cc2cccc(NC(=O)C3CCCN(C(=O)C4CCC4)C3)c2)c1 (configuration not stated)
    -7	-5%	3.2%	.	.	.	.
25) COCCNC(=O)C1CC(c2ccc([N+](=O)[O-])cc2)=NO1 (configuration not stated)
    9	-2%	-0.7%	1	.	1.6	9%
26) O=C(Nc1ccccc1)Nc1ccc(C(=O)N2CCOCC2)cc1
    -15	-5%	-1.6%	3	-4%	1.2	11%
27) COc1ccc(CN2C(=O)c3cccnc3C2=O)cc1S(=O)(=O)N(C)c1cccc(C)c1
    -9	-15%	1.1%	1	?	-2.5	13%
28) COc1cc(/C=C2/C(=N)N3N=C(CC(=O)N4CCOCC4)SC3=NC2=O)ccc1OCc1ccccc1F
    -4	9%	-4.4%	13	44%	.	-1%
29) CCCOc1ccccc1N1C(=O)CC(N(O)c2ccccc2)C1=O (configuration not stated)
    -6	0%	.	0	5%[15.4 µM]	1.8	6%
30) CCN(CCNC(=O)C1CCN(S(=O)(=O)c2c(C)noc2C)CC1)c1ccccc1
    -11	-4%	.	0	-16%	-4.5	10%
31) COc1cc(NC(=O)c2ccco2)ccc1NC(=O)c1ccccc1Cl
    13	-11%	-5.7%	-3	19%	-4.7	7%
32) O=C(Nc1cccc(NC(=O)c2ccco2)c1)c1ccc2c(c1)OCCO2
    -4	-11%	.	-10	-18%	0.9	16%
33) CCOC(=O)N1CCC(NC(=O)c2cc3sccc3n2CC)CC1
    -12	-9%	-3.5%	7	0%	3.0	3%
34) CCCN(CC1CC1)C(=S)NC(=O)c1ccccc1C
    1	.	0.2%	.	-244%[inhibitor]	.	.
35) Cc1csc(NC(=O)CSc2nnc(Cc3cccn3C)n2-c2ccc(F)cc2)n1
    -2	-12%	5.0%	26	?	0.1	-22%
36) O=C(NN1CCOCC1)c1cccc2ccccc12
    3	-2%	1.6%	13	2%[15.4 µM]	5.6	9%
37) CCCc1c(C(=O)NNc2ccccc2OC)cnn1-c1ccccc1
    -8	5%	.	.	?	0.1	-5%
38) Cc1cc(SCCC(=O)O)nc2c(C)cccc12
    28	8%	-11%	15	?	1.6	11%
39) c1ccc(-c2nccc(-c3ccco3)n2)nc1
    -67*	4%	.	28	3%	-0.5	7%
40) CSC(=N/N=C(\N)c1cnccn1)SC
    5	22%	-1.1%	-8	-35%[inhibitor]	0.4	-12%
41) CC(C)(C)OC(=O)N1CCC(C(N)=O)CC1
    10	12%	0.0%	3	?	1.9	19%
42) COC(=O)C(C#N)c1nc2ccccc2nc1N1CCN(Cc2ccc3c(c2)OCO3)CC1 (configuration not stated)
    .	.	.	9	.	-8.7	14%
43) COc1ccc(NS(=O)(=O)c2cc(C(=O)N(C)CCc3ccccn3)ccc2Cl)cc1
    12	-11%	1.1%	.	?	.	.
44) Cc1cccc(NC(=O)c2ccc([N+](=O)[O-])s2)c1C
    -23	-6%	0.1%	-37	-58%[inhibitor]	-0.3	-3%
45) Cc1ccc(S(=O)(=O)NCC(=O)Nc2ccc(C(F)(F)F)cc2)cc1
    6	11%	0.5%	1	2%	1.3	-1%
46) O=c1ccc(N=Nc2ccccc2)ccc1O
    ?	2%	.	?	6%	?	-10%
47) Cc1cc(C)cc(NC(=O)c2ccc([N+](=O)[O-])o2)c1
    -28	-12%	.	-5	-19%	1.7	17%
48) COc1ccc(S(=O)(=O)NCCc2c[nH]c3ccccc23)cc1OC
    2	-5%	.	12	-9%	0.7	12%
49) CCCn1c(=O)c(C(=O)NNS(=O)(=O)c2ccc(Cl)cc2)c(O)c2ccccc21
    17	-23%	-4.4%	3	-32%[inhibitor]	0.5	40%
50) Cc1cccc(C(=O)OCC(=O)N2CCCC2=O)c1[N+](=O)[O-]
    4	10%	0.3%	7	0%[15.4 µM]	.	.
51) COc1ccc(N=C2S/C(=C\c3ccc(Cl)c([N+](=O)[O-])c3)C(=O)N2CCN(C)C)cc1
    .	-2%	0.7%	3	-2%	3.2	40µM*
52) CC(C)(C)c1ccc(C(=O)O/N=C(\N)c2ccccc2)cc1
    .	0%	3.6%	-16	29%	-3.4	5%
53) COc1ccc(OC)c(NC(=O)CSc2nnc(C3CCCCC3)o2)c1
    8	-15%	.	3	4%[15.4 µM]	-5.3	4%
54) O=C(CSc1oc(-c2ccco2)nc1S(=O)(=O)c1ccccc1)NCC1CCCO1 (configuration not stated)
    -1	-3%	-0.8%	-6	23%	3.6	-10%
55) COC(=O)c1sc(NC(=O)c2c(F)cccc2F)c(C#N)c1C
    9	-27%	-1.1%	2	-28%	10	10%
56) O=C(CC1S/C(=N/N=C/C=C/c2ccccc2)NC1=O)Nc1ccc(C(=O)O)cc1 (configuration not stated)
    -27	-5%	.	2	?	-2.9	-5%
57) CCOc1ccc(CN(CCO)CCO)cc1C(=O)OC
    0	5%	-5.5%	-2	0%	2.8	18%
58) O=S1(=O)C[C@H]2NC(=S)N(c3ccccc3)[C@H]2C1
    10	6%	-0.1%	5	10%	-2.0	-20%
59) O=C(NCCC1=CCCCC1)C1CCCN(S(=O)(=O)c2cccnc2)C1 (configuration not stated)
    -1	12%	-0.8%	-17	-19%	0.3	7%
60) CC1CCCC(NC(=S)Nc2ccc(SC(F)F)cc2)C1C (configuration not stated)
    2	-14%	-4.0%	9	-4%	-2.3	-16%
61) CC1=C(C(=O)N2CCOCC2)CC(CC(=O)NCc2cccs2)C(=O)N1Cc1ccc(F)cc1 (configuration not stated)
    0	.	0.4%	.	2%	.	.

Entries of single compounds from above.
c1ccc(-c2nccc(-c3ccco3)n2)nc1 is entered as CtBP-E1A inh = -67*; gsp antagonist = 4%; ClpP mod = .; TRPV1 PAM = 28; gsp ag = 3%; Menin MLL FP FL = -0.5; Sfp inh = 7%
COc1cc(NC(=O)c2ccco2)ccc1NC(=O)c1ccccc1Cl is entered as CtBP-E1A inh = 13; gsp antagonist = -11%; ClpP mod = -5.7%; TRPV1 PAM = -3; gsp ag = 19%; Menin MLL FP FL = -4.7; Sfp inh = 7%
